Screens as filed in PubChem.
miR-21 reporter: qHTS Assay for Modulators of miRNAs and/orActivators of miR-21; HeLa miR-21 FLuc reporter, luciferase, 48 h; Potency, µM (series often up to 38.3 µM), for inactives: at the top dose reporter change, positive = more light; 340,000 tested, under 10 active; active = well fitted rising curve with a large enough effect; inconclusive = small, poorly fitted or top-dose-only effect; inactive = no such curve, though single readings can be large or run the other way;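 note: % of control where 0% means no effect; miR-21 action dims this reporter so a rising signal means less miR-21 action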
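HeLa miR-21-FLuc reporter line, endogenous miR-21; 2000 cells/well in DMEM/10% FBS; compound titration up to ~40uM final, 48 h, 37 degree Celsius; luciferase detection reagent, 15 min lysis, CCD luminescence.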
Rango release inh: qHTS Assay for Inhibitors of RanGTP induced Rango (Ran-regulated importin-beta cargo) - Importin beta complex dissociation | Potency, µM (top dose mostly 46.1 µM), inactives show top-dose activity change, negative = inhibition | actives 0.071% (n = 340,000) | Biochemical FRET Rango-importin beta, RanGTP-induced dissociation; active means falling FRET ratio curve, often poorly fitted, with flat reads before Ran was added; inconclusive means other falling curves, or compound fluorescence or quenching; inactive means flat or rising ratio curve;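 note: potency is the fitted concentration of half-maximal effect; % of control where 0% means no effect; nearly all actives have a fitted effect of over 45% in size; -100% = wells without RanGTP and RCC1; the record marks most hits as doubtful in a second field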
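Recombinant Rango FRET biosensor (EYFP–snurportin 1 IBB–cerulean CFP10) at 0.1 uM premixed with 0.25 uM importin beta in PBS, 1 mM DTT, 0.02% Tween-20, 0.1% BSA. Compound added 5 min; RanGTP-RCC1 (0.6 uM Ran, 2 mM GTP, 0.2 uM RCC1) then triggers release, read at 45 min.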
Rango-impB inh: qHTS Assay for Inhibitors of Rango (Ran-regulated importin-beta cargo) - Importin beta complex formation | actives 0.031% (n = 340,000) | Potency, µM (titrated, usually from 92.2 µM), for inactives: at the highest dose inhibition of complex formation | Rango CFP/YFP FRET sensor + importin beta, 45 min; active = rising FRET ratio curve, often small or poorly fitted; inconclusive = mostly compound fluorescence or quenching in the first reads; inactive = flat curves in all reads;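 note: potency is the fitted concentration of half-maximal effect; 0% = DMSO wells and 100% = buffer wells lacking importin beta; nearly all actives have a fitted effect of over 15% in size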
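Inhibition scored from the CFP 486 nm/YFP 530 nm FRET ratio 45 min after adding 0.125 microM importin beta to 50 nM Rango biosensor preincubated 5 min with compound (room temperature, PBS with DTT, Tween-20, BSA). No-importin wells as positive control.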
GLA inh pH 4.5: qHTS Assay for Inhibitors of Human alpha-Galactosidase at pH 4.5. purified enzyme, 4-MU-alpha-Gal fluorescence, pH 4.5. activity change, negative = inhibition, % at 105 µM. 230,000 tested, under 10 active; inconclusive = small, poorly fitted or top-dose-only inhibition, or a rising curve; inactive = flat fitted curve, though single readings scatter; no compound was filed as active;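 note: 0% = full activity with enzyme and -100% = basal without enzyme; dose as in the result columns while the protocol names 77 µM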
Target sequence (P06280 whole entry, looked up): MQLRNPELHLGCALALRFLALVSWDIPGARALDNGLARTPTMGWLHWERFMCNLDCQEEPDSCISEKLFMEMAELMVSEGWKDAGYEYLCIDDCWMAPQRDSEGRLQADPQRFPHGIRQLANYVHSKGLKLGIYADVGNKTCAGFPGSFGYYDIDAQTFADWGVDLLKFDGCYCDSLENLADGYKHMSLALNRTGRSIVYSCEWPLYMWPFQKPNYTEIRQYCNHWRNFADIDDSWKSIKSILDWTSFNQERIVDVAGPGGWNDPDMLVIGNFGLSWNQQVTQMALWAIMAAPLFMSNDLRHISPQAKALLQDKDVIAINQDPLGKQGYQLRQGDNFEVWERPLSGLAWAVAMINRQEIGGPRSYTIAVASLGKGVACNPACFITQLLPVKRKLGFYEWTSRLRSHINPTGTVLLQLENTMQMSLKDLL
* = called active by the depositor; ? = inconclusive; . = no result given; & = joins results of further samples.

SMILES	miR-21 reporter	Rango release inh	Rango-impB inh	GLA inh pH 4.5
CC(C)N1CCN(Cc2cc(F)ccc2-n2cccn2)CC1CCO (stereo not given)	-2%	-3%	2.7%	1
Cc1ccc(S(=O)(=O)NNC(=O)C2CCN(S(=O)(=O)c3ccc(C)cc3)CC2)cc1	-1%	38%	0.1%	3
O=C(NO)c1ccccc1C(F)(F)F	0%	-14%	-0.3%	3
COC(=O)CN1C(=O)[C@@H]2[C@H](C1=O)[C@@H]1CC(C(=O)OC)=C[C@@H](C(=O)OC)[C@@H]3C1=C(C(=O)[C@]3(C)NC(=O)c1ccccc1)[C@@H]2C	.	1%	3.4%	.
Cc1nc2c(Cl)cc(Cl)cc2[nH]1	-7%	6%	1.4%	-5
COc1cccc(CC(=O)NC2CCCN(Cc3ccccc3F)C2)c1 (stereo not given)	0%	-11%	0.0%	.
CCCC(=O)Nc1nc(C)c(C(C)=O)s1	6%	-16%	-2.0%	3
COc1ccccc1CNC(=O)c1sccc1C	-18%	-7%	0.5%	.
OC1CCN(Cc2cccc3ccccc23)CC1	-3%	7%	1.8%	-8
Cc1ccccc1CC(=O)NCc1cccnc1	-1%	14%	6.2%	.
O=C(CCc1ccccc1)N=C1SC2CS(=O)(=O)CC2N1c1ccc(F)cc1 (stereo not given)	-6%	-17%	-0.5%	.
CC1Cc2ccccc2N1C(=O)Cn1nc(C(=O)O)c2ccccc2c1=O (stereo not given)	-6%	6%	1.7%	-1
CCc1cccc(C)c1NC(=O)CN(C)C1=NS(=O)(=O)c2ccccc21	.	-6%	2.0%	.
COc1cccc(C(=O)Nc2cc3c(cc2N2CCOCC2)n(C)c(=O)n3C)c1	-4%	10%	5.1%	.
COc1cccc(CC2(CO)CCN(Cc3cccn3-c3cccnc3)CC2)c1	2%	2%	-0.3%	-7
O=C(CCCN1C(=O)CCC1=O)Nc1ccc2c(c1)OCO2	-9%	-13%	-3.3%	-13
CN(C)CCN1C(=O)CCC2(C)C1=CCC1C2CCC2(C)C1CCC2(C)O (stereo not given)	.	-15%	-1.1%	.
Cn1nc(C(F)(F)F)c2cc(C(=O)NC3CC3)sc21	-5%	-1%	0.0%	-2
CN(CC(=O)Nc1ccc(F)cc1)C(=O)c1cc(-c2ccco2)nc2ccccc12	.	-16%	-3.0%	.
COc1c(C)cccc1C(=O)Nc1ccc(N2CCOCC2)c(Cl)c1	-55%	3%	-1.4%	-12

Results in GLA inh pH 4.5, miR-21 reporter and Rango release inh, for 3 of the compounds above:
| compound | GLA inh pH 4.5 | miR-21 reporter | Rango release inh |
| --- | --- | --- | --- |
| Cc1ccccc1CC(=O)NCc1cccnc1 | . | -1% | 14% |
| CC(C)N1CCN(Cc2cc(F)ccc2-n2cccn2)CC1CCO (stereo not given) | 1 | -2% | -3% |
| O=C(CCc1ccccc1)N=C1SC2CS(=O)(=O)CC2N1c1ccc(F)cc1 (stereo not given) | . | -6% | -17% |

Additional structures follow:
SMILES	miR-21 reporter	Rango release inh	Rango-impB inh	GLA inh pH 4.5
Cc1cccc(C(C#N)c2nc3ccccc3nc2C(F)(F)F)c1 (stereo not given)	.	14%	-2.6%	.
CCC(C(=O)OCC(=O)N(CCOC)c1c(N)n(Cc2ccccc2)c(=O)[nH]c1=O)c1ccccc1 (stereo not given)	-3%	1%	1.6%	.
CN(Cc1cccnc1)Cc1cn(C)nc1-c1ccc(Oc2ccccc2)cc1	2%	13%	3.7%	3
CCc1nc(C)cn1S(=O)(=O)c1cc([N+](=O)[O-])ccc1Cl	28%	-8%	-0.7%	0
COc1ccc2c(C)cc(=O)[nH]c2c1	-7%	0%	-2.0%	4
CC(Oc1cccc(F)c1)C(=O)/C=C\N(C)C (stereo not given)	-5%	?	?	5
C/C(=N\OC(=O)c1ccc(Cl)c(Cl)c1)c1sc(C)nc1C	-4%	3%	5.1%	1
Cc1ccnc(NC(=O)CCC(=O)N(CC(=O)NC2CCCCC2)Cc2ccc3c(c2)OCO3)c1	-8%	.	.	-2
Cc1[nH]c2ccccc2c1C(=O)C(=O)N1CCN(c2ccccc2F)CC1	-7%	1%	0.8%	.
CCOC(=O)c1nn(-c2ccc(OCC)cc2)c2nc(-c3cccc(OC)c3)c(C#N)c(=O)n12	-3%	3%	?	?
N#Cc1cnc(NCc2ccc(Cl)cc2Cl)nc1	-5%	-12%	3.1%	.
COc1cc(/C=N/n2nnnc2N)cc(Cl)c1OC	.	1%	-1.2%	.
C=CCSc1nc(C)c(Cc2cccc3ccccc23)c(=O)[nH]1	-4%	-2%	-0.6%	6
Cc1ccccc1NC(=S)N(CCCN1CCCCC1)Cc1ccco1	-8%	21%	-0.1%	4
CC(=O)N1c2ccccc2[C@H](C)[C@H]1C	.	-5%	-0.3%	.
COC(=O)c1nn(-c2ccccc2)c(Sc2ccc(Cl)cc2)c1/C=N/O	12%	0%	1.8%	-7
Cc1c(C=NNc2ccccc2)[nH]c(=O)[nH]c1=O	.	16%	6.3%	.
O=C(CC1CCCCC1)NCc1nc(-c2ccccc2)no1	-13%	-14%	-5.3%	0
O=C(CNC(=O)Cc1ccccc1)N=Nc1c(O)[nH]c2ccccc12	0%	24%	3.0%	.
CC(=O)c1ccc(OCC(=O)OCC(=O)N(CC(C)C)c2c(N)n(Cc3ccccc3)c(=O)[nH]c2=O)cc1	.	4%	3.5%	.
NS(=O)(=O)c1ccc(CNC(=O)/C=C/c2c(Cl)cccc2Cl)cc1	-13%	.	.	2
CCOC(=O)c1c(-c2ccc(C)s2)csc1NC(=O)c1ccco1	-11%	.	.	8
Cc1onc(-c2ccccc2)c1C(=O)Nc1cccc2nsnc12	-6%	?	?	8
CCCCn1c(N)c(N(CC(C)C)C(=O)c2ccc(COc3ccccc3)o2)c(=O)[nH]c1=O	-3%	0%	-6.5%	.
Brc1ccc2cccnc2c1	0%	-7%	0.4%	2
Nc1ccccc1C=C1Cc2ccccc2C1=O	.	?	?	.
Cc1cccc(NC(=O)C(=O)NNC(=O)c2ccc(C(C)(C)C)cc2)c1	-1%	9%	2.6%	.
CCOc1ccc(NC(=O)Cn2cc(C(=O)CC)c3ccccc32)cc1	1%	-8%	-1.0%	.
CC[C@H]1CCCCc2ccccc2[C@@H](C(=O)C[C@@H](O)CC(C)=O)OC1=O	.	12%	-2.9%	.
O=C(O)C1CCN(C(=O)CSc2nc3ccccc3s2)CC1	-1%	14%	7.3%	-10
N#CC[C@H](Cc1ccccc1)N1CCN(CCc2ccccc2)CCC1=O	-2%	1%	0.3%	.
COc1ccccc1Nc1ncc(C(=O)Nc2ccc(OC)c(OC)c2)c2ccccc12	-2%&-17%	?	-19%	18
CC(C)OCCCn1c(=O)c2ccccc2n2c(CCC(=O)O)nnc12	-2%	-8%	5.4%	.
Cc1ccc(NC(=O)c2cnn(-c3ccccc3)c2NC(=O)c2ccco2)cc1	-23%	0%	3.2%	2
CC(=O)Nc1ccc(S(=O)(=O)Nc2ccc3c(c2)OCCO3)cc1Cl	17%	-9%	2.9%	-8
CC(/C=N/n1c(-c2cc(C)[nH]n2)n[nH]c1=S)=C\c1ccco1	1%	-5%	1.9%	-2
CCN(CC)C(=O)c1[nH]cnc1C(=O)N[C@@H](CC(C)C)C(=O)OCc1ccccc1	3%	0%	0.5%	0
Cc1ccc(C)c(OCC(=O)Nc2ccccc2C(=O)N2CCN(C)CC2)c1	-6%	6%	3.1%	.
CCOc1ccc(/C=C2\SC(=O)N(CCNC(=O)CN3C(=O)NC4(CCCC4)C3=O)C2=O)cc1OC	-4%	10%	-2.9%	.
O=C(c1cccs1)c1coc2ccc(O)c(CN(CCO)CCO)c12	-17%	-15%	9.1%	-6
Cc1nn(C(=O)c2cccnc2)c(C)c1Sc1ccccc1	1%	0%	-0.3%	-6
COc1ccc(CCC(C)N(C)Cc2ccccc2)cc1 (stereo not given)	-5%	7%	2.4%	.
O=C(Cc1ccccc1)Nc1ccc(Cl)cn1	-27%	-5%	1.7%	.
COC(=O)c1ccccc1NC(=O)C1CCCN(c2nnc(-n3cccc3)s2)C1 (stereo not given)	-9%	-7%	-1.4%	-9
CCOC(=O)c1cnc(SC)nc1Oc1cccc(NS(=O)(=O)c2ccc(C)cc2)c1	1%	-22%	-0.3%	0
CCN(CC)S(=O)(=O)c1ccc(NC(=S)NC(=O)C2CCC2)cc1	7%	1%	-1.5%	.
O=C(NCc1ccncc1)c1cccc(NS(=O)(=O)c2ccc(F)c(F)c2)c1	.	6%	1.1%	.
CCn1nc(C)cc1C(=O)N1CCCC(N(C)CCc2ccc(OC)c(OC)c2)C1 (stereo not given)	1%	5%	0.6%	.
COC(=O)CCC(=O)Nc1ccc(S(=O)(=O)N2CCc3ccccc32)cc1	-1%	12%	-2.8%	.
COc1ccc2nc(SCc3cccc(C)c3)nc(C)c2c1	-91%	0%	-0.9%	2
COc1cc(C(=O)c2c(C)c(CCC#N)n3ccccc23)cc(OC)c1OC	8%	-3%	3.1%	5
CCOc1ccc(N2CC(C(=O)Oc3ccccc3)CC2=O)cc1 (stereo not given)	-1%	1%	-3.1%	7
O=C(C1CCCN1S(=O)(=O)c1ccc(Cl)cc1)N1CCOCC1 (stereo not given)	-7%	31%	3.5%	-2

Copied from the listing, 17 compounds:
SMILES	miR-21 reporter	Rango release inh	Rango-impB inh	GLA inh pH 4.5
Cc1ccc(NC(=O)c2cnn(-c3ccccc3)c2NC(=O)c2ccco2)cc1	-23%	0%	3.2%	2
CC(=O)Nc1ccc(S(=O)(=O)Nc2ccc3c(c2)OCCO3)cc1Cl	17%	-9%	2.9%	-8
CC(/C=N/n1c(-c2cc(C)[nH]n2)n[nH]c1=S)=C\c1ccco1	1%	-5%	1.9%	-2
CCN(CC)C(=O)c1[nH]cnc1C(=O)N[C@@H](CC(C)C)C(=O)OCc1ccccc1	3%	0%	0.5%	0
Cc1ccc(C)c(OCC(=O)Nc2ccccc2C(=O)N2CCN(C)CC2)c1	-6%	6%	3.1%	.
CCOc1ccc(/C=C2\SC(=O)N(CCNC(=O)CN3C(=O)NC4(CCCC4)C3=O)C2=O)cc1OC	-4%	10%	-2.9%	.
O=C(c1cccs1)c1coc2ccc(O)c(CN(CCO)CCO)c12	-17%	-15%	9.1%	-6
Cc1nn(C(=O)c2cccnc2)c(C)c1Sc1ccccc1	1%	0%	-0.3%	-6
COc1ccc(CCC(C)N(C)Cc2ccccc2)cc1 (stereo not given)	-5%	7%	2.4%	.
O=C(Cc1ccccc1)Nc1ccc(Cl)cn1	-27%	-5%	1.7%	.
COC(=O)c1ccccc1NC(=O)C1CCCN(c2nnc(-n3cccc3)s2)C1 (stereo not given)	-9%	-7%	-1.4%	-9
CCOC(=O)c1cnc(SC)nc1Oc1cccc(NS(=O)(=O)c2ccc(C)cc2)c1	1%	-22%	-0.3%	0
CCN(CC)S(=O)(=O)c1ccc(NC(=S)NC(=O)C2CCC2)cc1	7%	1%	-1.5%	.
O=C(NCc1ccncc1)c1cccc(NS(=O)(=O)c2ccc(F)c(F)c2)c1	.	6%	1.1%	.
CCn1nc(C)cc1C(=O)N1CCCC(N(C)CCc2ccc(OC)c(OC)c2)C1 (stereo not given)	1%	5%	0.6%	.
COC(=O)CCC(=O)Nc1ccc(S(=O)(=O)N2CCc3ccccc32)cc1	-1%	12%	-2.8%	.
COc1ccc2nc(SCc3cccc(C)c3)nc(C)c2c1	-91%	0%	-0.9%	2

Some of the compounds tested; rates above refer to the full screens.
